# gsp ag: gsp mutant agonism; AID 624287; gsp mutant cells, cAMP HTRF, 30 min; control for the full effect not named in the record; 340,000 compounds, 0.13% hits; Potency, µM (highest dose often 76.9 µM), for the others: at the highest dose activation (cAMP increase), actives largely listed as activators; active = well fitted activation curve with a large enough effect; inconclusive = small, poorly fitted or top-dose-only effect, or another doubt; inactive = no such curve, though single readings can be large or run the other way; cell line not stated here;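 also: phosphodiesterase inhibitor Ro 20-1724 added with compounds to block cAMP breakdown; potency is read from the fitted curve at half-maximal effect; nearly all actives have a fitted effect of over 60% in size; about a fifth of the inactives were tested at one dose only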
#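 Cells in DMEM/10% FBS with G418 were pretreated with compounds in DMSO plus […] (300 uM stock) for 30 min at 37C. cAMP was measured by HTRF (cAMP-d2 plus anti-cAMP antibody-K) after 30 min at room temperature.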
# D2 PAM: human D2 receptor positive allosteric modulation. potentiation, % (test concentration not listed). AID 624464. 360,000 compounds, 0.23% hits. P14416. DiscoveRx D2 beta-arrestin cells, luminescence, 90 min; 100% = 57 uM dopamine signal; active = potentiation of 50% or more; inconclusive = 30% to 50%; inactive = 30% or less;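 also: compound concentration not given in the record; tested on top of an EC20 dose of dopamine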
# Target sequence (P14416 whole entry, looked up): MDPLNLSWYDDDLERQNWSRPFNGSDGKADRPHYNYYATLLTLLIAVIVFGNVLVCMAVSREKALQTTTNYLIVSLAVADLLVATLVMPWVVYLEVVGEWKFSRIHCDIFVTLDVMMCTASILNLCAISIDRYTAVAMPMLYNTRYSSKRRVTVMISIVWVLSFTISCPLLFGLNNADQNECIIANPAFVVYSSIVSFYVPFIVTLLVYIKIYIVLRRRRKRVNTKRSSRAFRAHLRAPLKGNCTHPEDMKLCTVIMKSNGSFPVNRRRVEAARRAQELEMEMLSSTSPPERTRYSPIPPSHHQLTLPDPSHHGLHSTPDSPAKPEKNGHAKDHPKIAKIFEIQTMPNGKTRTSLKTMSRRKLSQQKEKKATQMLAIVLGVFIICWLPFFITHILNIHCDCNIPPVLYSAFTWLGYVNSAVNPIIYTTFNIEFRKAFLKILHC
#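 PathHunter D2 cells, attached overnight at 37 deg C, received compound in DMSO plus dopamine at EC20 (50 nM final) for 90 min at 37 deg C. Beta-arrestin recruitment was read as luminescence after 1 h with detection reagent at ambient temperature.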
# CtBP-E1A inh: blocks the CtBP interaction with E1A. AlphaScreen GST-E1A/His-CtBP binding, 1536-well; stronger effect = lower value; control for the full effect not named in the record. activity change, % (concentration not given with the values). 340,000 compounds, 0.49% hits; in the data active means activity change below about -65%; inconclusive means about -30% to -65%; inactive means above about -30%; also: % is scaled to controls: 0 for no effect and ±100 for the full control effect
#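 GST-E1A and His-tagged CtBP (125 nM each as 5X stock) were preincubated with pin-transferred compound for 2 h at 37 °C in the dark, then glutathione donor and nickel acceptor beads were added for 1 h before AlphaScreen reading.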
# Six1-Eya2 inh: blocks human Six1 binding to Eya2; AlphaScreen GST-Six1/His-Eya2 binding, biochemical; stronger effect = lower value; control for the full effect not named in the record; 360,000 compounds, 0.56% hits; Q15475+O00167; AID 651725; activity change, % (test concentration not listed); in the data active = activity change below about -65%; inconclusive = about -30% to -65%; inactive = above about -30%; also: % is scaled to controls: 0 for no effect and ±100 for the full control effect
#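 Compounds are tested against tagged Six1 and Eya2 proteins bridged by glutathione donor and nickel acceptor beads; after a one-hour incubation at 37 °C without light, AlphaScreen emission is recorded.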
# D2 ag: activates the human D2 dopamine receptor; P14416; DiscoveRx PathHunter D2 beta-arrestin, luminescence, 90 min; 100% = 57 uM dopamine signal; activation, % (test concentration not listed); 360,000 compounds, 0.084% hits; AID 624465; in the data active = activation above about 40%; inconclusive = about 15% to 40%; inactive = below about 15%; also: compound concentration not given in the record; the text of the record calls up to 30% inactive
#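 DiscoveRx PathHunter D2 beta-arrestin cells (2,100/well) attached overnight, then compound-stimulated 90 min at 37 C in HBSS/10 mM HEPES/0.1% Tween-20 buffer; beta-galactosidase complementation read by luminescence after 1 h at ambient temperature. Dopamine 57 uM final (EC100) as control.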
# gsp antagonist: antagonizes gsp, the McCune-Albright syndrome mutation | gsp-mutant cells, cAMP HTRF, 30 min; control for the full effect not named in the record | Potency, µM (series often up to 76.9 µM), for the others: at the highest dose activity change, negative = inhibition, hits mostly inhibitors | 340,000 compounds, 0.4% hits; active = falling curve of any shape with a large fitted effect; inconclusive = falling curve, mostly with a smaller effect; inactive = flat or rising curve; cell line not stated here;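 also: intracellular cAMP measured with PDE inhibitor Ro 20-1724 present during compound exposure; potency is read from the fitted curve at half-maximal effect; % is scaled to controls: 0 for no effect and ±100 for the full control effect; nearly all actives have a fitted effect of over 65% in size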
#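 Measurement of cellular cAMP by homogeneous time-resolved fluorescence following a 30 min compound exposure at 37C. The PDE inhibitor […] was present throughout; the assay buffer was DPBS with 0.05% BSA and 0.005% Tween 20.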
# An asterisk follows results filed as active; ? = inconclusive; nt = no result given; [ ] = dose if it differs, or a comment.
SMILES,gsp ag,D2 PAM,CtBP-E1A inh,Six1-Eya2 inh,D2 ag,gsp antagonist
CCN1C(=O)N[C@@H](c2cccc(C(F)(F)F)c2)C(C(=O)OC)=C1C,?,-3,6,-2,-3.1,1%
Cc1c(C)c2ccc(OCC(=O)N3CCN(c4ccc(F)cc4)CC3)c(C)c2oc1=O,33%,-1,4,1,-1.1,3%
CCn1c2ccccc2c2cc(NC(C)=O)ccc21,?,-15,-1,-3,-0.4,-7%
CSc1nnc(N2C(=O)C(O)=C(C(=O)c3ccco3)C2c2ccc(F)cc2)s1 (centres undefined),?,-2,nt,1,-0.4,3%
Cc1ccc(/C=C/C(=O)Nc2ccc(S(=O)(=O)Nc3ncccn3)cc2)cc1,21%,-16,nt,21,-1.7,-3%
Cc1cc(Cl)cc(Cl)c1OCCN1CCCC1,21%,-6,-11,3,-0.7,5%
Cc1ccc(C(=O)O)cc1S(=O)(=O)N1CCOCC1,14%,-4,8,4,1.5,5%
COc1ccc(/C=C2\SC(=S)N(CC(=O)OCC(=O)Nc3ccc([N+](=O)[O-])cc3OC)C2=O)cc1,14%[15.4 µM],5,-1,-4,1.8,7%
C=CCO/N=C(\C)c1c(O)c(C)c(-c2ccccc2)n(-c2ccccc2)c1=O,?,-16,0,3,1.5,-27%
Cc1cccc(-c2nn(-c3ccccc3)cc2C(=O)Nc2cccc(S(=O)(=O)NC3=NCCC3)c2)c1,-11%,-15,-10,-5,3.2,-18%
Cc1nc2nc(C)c(CCC(=O)N3CCc4ccccc43)c(C)n2n1,-4%,-8,-1,1,1.7,9%
CCn1c(=O)cc(N2CCOCC2)[nH]c1=O,-15%[15.4 µM],0,2,3,-0.3,-2%
O=S(=O)(c1cccc(-c2nnc3n2CCCCC3)c1)N1CCOCC1,-2%[15.4 µM],-7,9,-3,-0.7,0%
O=C(N/N=C/c1ccc(N2CCOCC2)s1)c1ccccc1Cl,?,1,-5,-2,-4.3,-18%
Cc1ccc(C(=O)N(CC(=O)NC2CCCC2)c2ccccc2F)s1,-44%[inhibitor],-19,-2,4,-0.1,nt
Cc1ccc(Nc2ccc(C(=O)NCCc3ccccc3)cn2)cc1,1%,-8,-1,-13,0.5,-3%
C[C@H]1CN([C@@H](C)CO)C(=O)CCCn2nncc2CO[C@@H]1CN(C)Cc1ccc2c(c1)OCO2,-44%[inhibitor],-7,0,8,-3.8,nt
Cc1cc(=O)[nH]c(N/N=C/c2sccc2C)n1,9%,-1,?,?,2.2,-15%
O=C(O)c1ccccc1S(=O)(=O)CC(=O)N1CCCCC1,17%,-2,4,-3,-3.3,5%
O=C(NCC(c1ccco1)N1CCCCC1)c1ccc(NS(=O)(=O)c2ccc(F)cc2)cc1 (centres undefined),17%,-15,9,-3,-2.1,-7%
COc1ccc(OCC(=O)NCCC2=CCCCC2)c([N+](=O)[O-])c1,5%,-4,nt,-10,-4.7,-13%
O=C1CCC(C(=O)N2CCCCCC2)CN1Cc1cccc(C(F)(F)F)c1 (centres undefined),16%,-9,2,6,1.4,-2%
O=C1C=C(Nc2ccc(Cl)cc2Cl)CC(c2ccco2)C1 (centres undefined),10%[15.4 µM],-8,0,-3,-0.5,-5%
Cc1snnc1C(=O)NC(=S)Nc1ccccc1,?,-15,-7,1,-8.9,3%
O=C(CC1CCCC1)N1CCN(S(=O)(=O)c2ccccc2)CC1,?,-2,nt,0,-2.1,8%
Cc1ccc(C)c(Nc2c(F)c(F)c(F)c(F)c2C(=O)O)c1,?,13,-1,0,4.2,-22%
CCCN(CCC)CC(O)CN(c1cc([N+](=O)[O-])ccc1OC)S(=O)(=O)c1ccccc1 (centres undefined),-46%[inhibitor],-24,-7,-8,-3.0,4%
CCN(CC)CCN(C(=O)c1ccc(CN2CCCCC2)o1)C(C(=O)NC1CCCCC1)c1ccc(F)cc1 (centres undefined),?,-1,3,8,-1.6,3%
Cn1nc(N)c2c(-c3ccccc3)c(C#N)c(N)nc21,-9%[15.4 µM],-7,-1,3,1.0,-5%
CC(C)(C)OC(=O)N1CCC(C(=O)N[C@H](Cc2ccccc2)C(=O)O)CC1,25%,-11,3,4,-1.3,9%
N#Cc1c(/N=C/c2cccs2)sc2c1CCC2,-11%,-10,?,?,-3.4,-26%
C=CCN(CC=C)Cc1cc(=O)oc2ccc3ccccc3c12,nt,-5,15,10,-5.3,nt
CCCCc1cc2c(c(NC(=O)CC)n1)c(=O)oc1ccccc12,-10%,0,-19,16,-4.1,3%
CC(C)CN(C(=O)COC(=O)CNC(=O)c1ccccc1F)c1c(N)n(Cc2ccccc2)c(=O)[nH]c1=O,26%,0,4,4,2.1,10%
COc1cc2c(=O)n(Cc3ccccc3)c(=O)n(CC(=O)NCC3CCCO3)c2cc1OC (centres undefined),-2%,10,-1,3,-1.8,6%
Cc1nn(-c2ccccc2)c(C)c1/C=N/NC(=O)c1cc(-c2ccccc2)n[nH]1,?,-22,-14,-27,-8.0,3%
CCOc1ccc(NC(=O)CC(Cc2ccc(Cl)cc2)C(=O)O)cc1 (centres undefined),15%[15.4 µM],-9,2,5,-3.6,-6%
CCN1CCN(c2cc(C)c3cc(NC(=S)N4CCN(c5ccccc5F)CC4)ccc3n2)CC1,28%[15.4 µM],-11,-10,-2,-1.0,9%
CC(=O)OC1C(OC(C)=O)N(C(C)=O)C(=O)N1C(C)=O (centres undefined),?,-6,5,7,-2.7,-8%
CC1CCCC(C)N1C(=O)COC(=O)CCC(=O)c1ccc(F)cc1 (centres undefined),14%,-9,nt,6,-2.7,-6%
COc1cccc(/C=C2\N=C(C3CCCCC3)OC2=O)c1OC,-11%[15.4 µM],-4,2,7,-0.3,8%
CC1(C)Oc2c(ccc(O)c2CN2CCOCC2)C2=C1CCCC2,-10%,-31,-2,-14,-0.6,12%
COC(=O)C(O)(NC(=O)NC(C)=O)C(F)(F)F (centres undefined),-4%,10,3,19,-1.0,9%
O=C1CSc2ccccc2N1Cc1ccc(F)cc1,-3%,-3,6,12,-0.4,-13%
COC(=O)c1ccc(C)c(NC(=O)CN(c2ccc3c(c2)OCO3)S(C)(=O)=O)c1,-2%,-6,-4,12,1.1,-4%
CC(=O)NC(C)c1nc2ccccc2n1Cc1ccccc1F (centres undefined),-3%,4,3,2,-1.9,8%
CN(C(=O)c1cccc(NC(=O)Cc2ccc(NC(=O)C3CCCN(C(=O)C4CCCC4)C3)cc2)c1)C1CCCCC1 (centres undefined),nt,nt,-4,-9,0.1,-23%
COc1ccc(NC(=O)NCc2ccccn2)cc1,?,10,5,-3,-3.0,5%
Cc1ccsc1C(=O)OCC(=O)NCc1cccs1,-195%[inhibitor],-6,4,0,-2.9,nt
COc1cc(CN2CCNC(=O)C2CC(=O)NCCc2ncccc2C)cc(OC)c1 (centres undefined),?,-8,0,-2,-1.1,-3%
COC(=O)[C@H](CC(C)C)NC(=O)Cn1cnc2c(OCc3ccccc3)ncnc21,nt,nt,2,7,-2.5,4%
COc1ccc2c(c1)Cc1sc(NC(=O)c3ccccc3)nc1-2,-11%,3,-29,-18,-0.4,-25%
CCOC(=O)C1(C)Oc2ccccc2C(c2ccc(OC)cc2)=C1C(=O)OC (centres undefined),nt,-16,-1,7,-7.5,-7%
COC(=O)Cn1c2ccc(C)cc2c2nc3ccccc3nc21,-50%[inhibitor],-11,-2,-22,-0.7,7%
Cc1cccc(Cl)c1NC(=O)NCCCN1CCCCC1C (centres undefined),nt,-5,0,6,-7.6,nt
CCc1ccccc1Nc1nc2ccccc2n1CC,25%,-7,-1,9,0.2,0%
O=C(NC1CCCC1)C1CCN(C(=O)c2ccc(Cl)cc2Cl)CC1,7%[15.4 µM],-1,-1,-2,-0.2,11%
CC1(C)Cc2c(c(=S)nc(-c3ccccc3)n2Cc2cccnc2)CO1,-16%[15.4 µM],-10,-4,-4,4.3,6%
O=C(c1ccccc1OCc1ccccc1Br)N1CCN(c2ncccn2)CC1,0%,-5,-3,-4,-1.0,-13%
COc1ccc(-n2nc(C(=O)NCC(=O)NCCN(C)C)c3ccccc3c2=O)c(OC)c1,23%[15.4 µM],-8,6,4,-1.6,10%

# (listing goes on)
SMILES,gsp ag,D2 PAM,CtBP-E1A inh,Six1-Eya2 inh,D2 ag,gsp antagonist
COc1ccc2ccccc2c1C=NN1CCCCC1,38%,-14,-10,?,-13,nt
Cc1ccc(C2CCN(C(=S)NC3CCCCC3)C2)cc1 (centres undefined),-35%[inhibitor],-2,1,-1,-1.5,?
Cc1ccc(C(=O)NCCNC(=O)c2ccccn2)cc1,5%,-5,4,-9,-3.5,11%
Cc1ccc(NC(=O)c2ccc([N+](=O)[O-])cc2Cl)nc1,-8%[15.4 µM],5,-14,-11,3.4,6%
O=c1oc(-c2cccs2)nc2sc3c(c12)CCCC3,?,-8,7,0,-0.9,1%
C=CCNC(=O)CSc1nc2sccc2c(=O)n1-c1ccccc1,2%[15.4 µM],-7,-1,3,-2.4,1%
O=C(COC(=O)c1ccc(O)cc1O)Nc1cc(-c2ccccc2)nn1-c1ccccc1,-10%[15.4 µM],2,-3,-2,1.1,35µM*
CCOC(=O)C1(Cc2ccccc2)CCCN(C(=O)c2cnn(CC)c2)C1 (centres undefined),2%,-8,6,3,-0.2,5%
O=c1ccccn1Cc1c(F)cccc1Cl,-22%,-4,3,-1,-3.3,12%
COc1ccccc1CN1C[C@@H]2C[C@@H](c3ccc4nsnc4c3)N3CCC[C@@]23C1=O,-26%,-3,1,-1,0.0,-8%
COc1cc2c(=O)n(CCC(=O)NCC3CCCO3)c(=O)n(CC(=O)Nc3ccc(F)cc3)c2cc1OC (centres undefined),14%,-6,4,-2,2.1,6%
CC(O)(c1cccc(F)c1)c1nc(-c2ccoc2)cs1 (centres undefined),nt,-10,-22,0,5.9,nt
Cc1ccc2nc3n(c(=O)c2c1)-c1cc2ccccc2cc1C(=O)NC3Cc1ccc(O)cc1 (centres undefined),-84%[inhibitor],-2,21,21,7.1,nt
Cc1cc(C)cc(NC(=O)c2ccc3c(c2)CCN3S(C)(=O)=O)c1,13%,-7,-1,3,-0.3,-10%

# Full records as entered above. Order of screens: gsp ag	D2 PAM	CtBP-E1A inh	Six1-Eya2 inh	D2 ag	gsp antagonist
# Listed for COc1ccc2c(c1)Cc1sc(NC(=O)c3ccccc3)nc1-2 : -11%	3	-29	-18	-0.4	-25%
# Listed for O=C(CC1CCCC1)N1CCN(S(=O)(=O)c2ccccc2)CC1 : ?	-2	nt	0	-2.1	8%
# Listed for Cc1ccc(C(=O)O)cc1S(=O)(=O)N1CCOCC1 : 14%	-4	8	4	1.5	5%
# Listed for CCN1CCN(c2cc(C)c3cc(NC(=S)N4CCN(c5ccccc5F)CC4)ccc3n2)CC1 : 28%[15.4 µM]	-11	-10	-2	-1.0	9%

# Assay outcomes: PubChem, National Center for Advancing Translational Sciences (NCATS)

# Outcome played no part in choosing rows; 1.4% or so of the library scored in one or more.
